Screens: PubChem, National Center for Advancing Translational Sciences (NCATS)
gsp ag = qHTS for Agonist of gsp, the Etiologic Mutation Responsible for Fibrous Dysplasia/McCune-Albright Syndrome: qHTS; gsp mutant cells, cAMP HTRF, 30 min; control for the full effect not named in the record; Potency, µM (doses to about 76.9 µM), inactives show at the top dose activation (cAMP increase), hits mostly activators; hit rate 0.13% among 340,000; AID 624287, 2012; active = well fitted activation curve with a large enough effect; inconclusive = small, poorly fitted or top-dose-only effect, or another doubt; inactive = no such curve, though single readings can be large or run the other way; cell line not stated here;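 also: phosphodiesterase inhibitor Ro 20-1724 added with compounds to block cAMP breakdown; potency is read from the fitted curve at half-maximal effect; nearly all actives have a fitted effect of over 60% in size; about a fifth of the inactives were tested at one dose only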
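Cells in DMEM/10% FBS with G418 were pretreated with compounds in DMSO plus […] (300 uM stock) for 30 min at 37C. cAMP was measured by HTRF (cAMP-d2 plus anti-cAMP antibody-K) after 30 min at room temperature.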
PINK1 modulator = A Quantitative High throughput Screen to Identify Chemical Modulators of PINK1 Expression; PINK1 immunofluorescence, high-content cytometry, 24 h; Potency, µM (series often up to 76.6 µM), inactives show at the top dose activation (PINK1 increase), actives largely listed as activators; hit rate 0.2% among 410,000; AID 624263, 2012; active = well fitted activation curve with a large enough effect; inconclusive = small, poorly fitted or top-dose-only effect; inactive = flat fitted curve, though single readings scatter; cell line not stated here;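 also: potency is read from the fitted curve at half-maximal effect; % of control where 0% means no effect; nearly all actives have a fitted effect of over 65% in size; a mitochondrial uncoupler was the plate control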
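Cells are seeded, rested 12 hours, then given compound at five concentrations or DMSO for 24 hours. After fixation, blocking and antibody staining, PINK1 amount and mitochondrial localization are scored; CCCP serves as control.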
D2 ag = Beta-Arrestin HTS for Positive Allosteric Modulators of the Human D2 Dopamine Receptor: Agonists; AID 624465, 2012; D(2) dopamine receptor (Homo sapiens), P14416; DiscoveRx PathHunter D2 beta-arrestin, luminescence, 90 min; 100% = 57 uM dopamine signal; hit rate 0.084% among 360,000; activation, % (no concentration beside the values); in the data active = activation above about 40%; inconclusive = about 15% to 40%; inactive = below about 15%; also: compound concentration not given in the record; the text of the record calls up to 30% inactive
Target sequence (P14416 whole entry, looked up): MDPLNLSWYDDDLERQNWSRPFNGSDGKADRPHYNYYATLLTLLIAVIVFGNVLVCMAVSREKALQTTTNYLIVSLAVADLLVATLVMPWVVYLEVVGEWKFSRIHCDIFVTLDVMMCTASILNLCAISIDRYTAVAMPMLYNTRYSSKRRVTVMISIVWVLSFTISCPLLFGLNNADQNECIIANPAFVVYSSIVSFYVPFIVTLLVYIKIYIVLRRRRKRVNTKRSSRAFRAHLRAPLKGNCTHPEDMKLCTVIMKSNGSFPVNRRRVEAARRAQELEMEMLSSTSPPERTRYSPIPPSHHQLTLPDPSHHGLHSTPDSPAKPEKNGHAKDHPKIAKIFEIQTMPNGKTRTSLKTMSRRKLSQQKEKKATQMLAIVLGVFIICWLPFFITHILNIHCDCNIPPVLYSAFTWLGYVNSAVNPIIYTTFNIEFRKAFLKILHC
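Agonist mode: compounds alone added to overnight-plated D2 PathHunter cells for 90 min at 37 C, with 57 uM final dopamine (EC100) defining full response. Beta-arrestin recruitment detected by chemiluminescent reagent, read after 1 h at ambient temperature.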
Menin MLL FP FL = qHTS Assay for Inhibitors Targeting the Menin-MLL Interaction in MLL Related Leukemias: Competition With Fluorescein Labeled MLL-derived Peptide; FP activity change, % at 61.4 µM; Fluorescence polarization, fluorescein-MLL peptide displacement from menin; 290,000 tested, under 10 active; inconclusive = falling polarisation curve, or a change in total fluorescence; inactive = total fluorescence flat and polarisation flat or rising; no compound was filed as active; the % refers to the polarisation; negative = inhibition;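 also: % of control where 0% means no effect; inhibitors lower the polarisation; unlabelled MLL peptide was the positive control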
gsp antag = qHTS for Antagonists of gsp, the Etiologic Mutation Responsible for Fibrous Dysplasia/McCune-Albright Syndrome: qHTS; gsp-mutant cells, cAMP HTRF, 30 min; control for the full effect not named in the record; hit rate 0.4% among 340,000; Potency, µM (top dose mostly 76.9 µM), without a hit: top-dose activity change, negative = inhibition, hits mostly inhibitors; active = falling curve of any shape with a large fitted effect; inconclusive = falling curve, mostly with a smaller effect; inactive = flat or rising curve; cell line not stated here;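 also: intracellular cAMP measured with PDE inhibitor Ro 20-1724 present during compound exposure; potency is read from the fitted curve at half-maximal effect; % is scaled to controls: 0 for no effect and ±100 for the full control effect; nearly all actives have a fitted effect of over 65% in size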
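Measurement of cellular cAMP by homogeneous time-resolved fluorescence following a 30 min compound exposure at 37C. The PDE inhibitor […] was present throughout; the assay buffer was DPBS with 0.05% BSA and 0.005% Tween 20.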
ClpP mod = qHTS Assay for Activators of ClpP; ATP-dependent Clp protease proteolytic subunit (Bacillus subtilis (strain 168)), P80244; purified B. subtilis ClpP, FRET peptide cleavage, 20 min; Potency, µM (titrated, usually from 57.5 µM), inactives show top-dose activity change, negative = active; hit rate 1.9% among 340,000; active = well fitted falling curve with a large enough effect; inconclusive = small, poorly fitted or top-dose-only effect; inactive = no such curve, though single readings can be large or run the other way; also: potency is read from the fitted curve at half-maximal effect; the source files actives as falling curves though it sought activators and does not explain the sign; nearly all actives have a fitted effect of over 65% in size; many hits overshoot -100%
Target sequence (P80244 whole entry, looked up): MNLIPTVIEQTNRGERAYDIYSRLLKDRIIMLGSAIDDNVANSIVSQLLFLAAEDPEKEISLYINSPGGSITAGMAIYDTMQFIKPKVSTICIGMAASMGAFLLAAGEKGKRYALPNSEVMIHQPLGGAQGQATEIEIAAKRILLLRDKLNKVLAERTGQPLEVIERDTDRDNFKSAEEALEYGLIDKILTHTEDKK
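FRET quenching reversal measured ClpP activation: 10 microg/mL B. subtilis ClpP at pH 8 with the FRET-FV decapeptide, read at 430 nm after 320 nm excitation. The 20-min minus 0-min signal was scaled between DMSO/no-enzyme wells and ADEP (5.8 microM final).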
Sfp inh = qHTS Assay for Inhibitors of Bacillus subtilis Sfp phosphopantetheinyl transferase (PPTase) | Biochemical Sfp PPTase activity, qHTS | Potency, µM, without a hit: max response, negative = inhibition, hits mostly inhibitors | hit rate 3.5% among 310,000 | AID 1490, 2009; active = well fitted inhibition curve with a large enough effect; inconclusive = small, poorly fitted or top-dose-only effect, or another doubt; inactive = no such curve, though single readings can be large or run the other way;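 also: the enzyme is Sfp with the accession as filed and its product quenches rhodamine fluorescence; potency is read from the fitted curve at half-maximal effect; 0% = enzyme reaction without inhibitor and -100% = no enzyme wells; top concentration of the series not given in the record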
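Fluorescence-quenching assay with 15 nM Sfp, 5 uM rhodamine-CoA and 12.5 uM BHQ-2-labelled ybbR peptide in pH 7.6 Hepes/MgCl2 buffer. Enzyme was pre-incubated with compound for 15 min at room temperature. Rate was taken from the 30-min fluorescence change (525/598 nm).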
* = called active by the depositor; & = joins results of further samples; [ ] = dose if it differs, or a comment. A portion of the library; rates above refer to the full screens.

O=C1NC(=S)NC(=O)C1Cc1ccccc1O was read as gsp ag -1%, PINK1 modulator -0.2%, D2 ag -1.9, gsp antag 10% and ClpP mod -3.3%.
O=C1CC(c2ccccc2)CC(O)=C1C=NCCN1CCN(C(=O)Cc2ccccc2)CC1 (configuration not stated) was read as gsp ag 6%, PINK1 modulator 1.3%, D2 ag -1.3, Menin MLL FP FL -0.5, gsp antag -9%, ClpP mod 1.4% and Sfp inh -9%.
For COc1ccccc1CN1CC[C@@]2(CCCN(C(=O)Oc3ccccc3)C2)C1 the results were PINK1 modulator -0.9%, Menin MLL FP FL -1.1 and Sfp inh -2%.
For CC1CCC(NC(=O)CNC(=S)N2CC3CC(C2)c2cccc(=O)n2C3)CC1 (configuration not stated) the results were gsp ag -33%[inhibitor], PINK1 modulator -0.3%, D2 ag 7.1, Menin MLL FP FL -1.3, gsp antag 11%, ClpP mod -0.8% and Sfp inh -14%.
`COC(=O)c1ccc(COc2cc(C)cc3oc(=O)c4c(c23)CCCC4)o1` gave gsp ag -16%, D2 ag -2.7, Menin MLL FP FL 1.8, gsp antag -1%, ClpP mod -131% and Sfp inh 3%.
For CN(C)C(CNC(=O)Cc1ccc(Br)cc1)c1ccccc1 (configuration not stated) the results were gsp ag 5%[15.4 µM], PINK1 modulator -0.1%, D2 ag -4.6, Menin MLL FP FL 3.6, gsp antag 9% and Sfp inh 13%.
Screening CN1C(=O)/C(=C\N2CCc3ccccc32)C(=O)NC1=S returned gsp ag 0%, PINK1 modulator 4.1%, D2 ag -0.3, gsp antag -15%, ClpP mod -1.5% and Sfp inh 35µM*.
Screening CN1CC2([N+](=O)[O-])CC=C(Cl)C([N+](=O)[O-])(C1)C2 (configuration not stated) returned gsp ag 1%[15.4 µM], PINK1 modulator 3.2%, D2 ag -0.3, Menin MLL FP FL 0.2, gsp antag 12%, ClpP mod -0.8% and Sfp inh 1%.
Screening Clc1cccc(C2NCc3ccccc3-n3cccc32)c1 (configuration not stated) returned gsp ag 10%, PINK1 modulator 8.9%, D2 ag 1.2, Menin MLL FP FL 5.9, gsp antag 2%, ClpP mod 1.9% and Sfp inh 3%.
Cc1cccc(C(O)(C(=O)NNC(=O)CN2CCN(C)CC2)c2cccc(C)c2)c1 was read as gsp ag -43%[inhibitor], PINK1 modulator -1.4%, D2 ag -3.2, Menin MLL FP FL -0.5, gsp antag 9%, ClpP mod -0.7% and Sfp inh 5%.
`Cc1ccccc1Cn1cnc2c(oc3ccccc32)c1=O` gave gsp ag 1%[15.4 µM], PINK1 modulator 7.1%&0.6%, D2 ag -0.6, Menin MLL FP FL -2.3, gsp antag -2%, ClpP mod inconclusive and Sfp inh -4%.
CN1CCN(c2cccc3c2C(=O)c2ccccc2C3=O)CC1 was read as gsp ag -47%[inhibitor], PINK1 modulator -0.4%, D2 ag -16, Menin MLL FP FL -7.0, gsp antag -12%, ClpP mod 0.8% and Sfp inh 8%.
CC1CCCCC1NC(=O)CNC(=S)N1CC2CC(C1)c1cccc(=O)n1C2 (configuration not stated) was read as gsp ag -7%, PINK1 modulator 0.7%, D2 ag 4.4, Menin MLL FP FL -2.8, gsp antag 16%, ClpP mod 1.5% and Sfp inh 5%.
`O=c1cccc2n1CC1CC2CN(c2ncnc3c2cnn3-c2ccc(Cl)cc2)C1` (configuration not stated) gave gsp ag 16%, PINK1 modulator 0.3%, D2 ag -0.8, Menin MLL FP FL 1.3, gsp antag -18%, ClpP mod -6.8% and Sfp inh -3%.
CC1CCCN(c2ccc(C(=O)N3CCC4(CC3)OCCO4)cc2[N+](=O)[O-])C1 (configuration not stated) was read as gsp ag -1%[15.4 µM], PINK1 modulator 2.2%, D2 ag -0.5, Menin MLL FP FL -4.8, gsp antag -13%, ClpP mod 1.7% and Sfp inh 9%.
`O=C(c1cc(=O)[nH]c2ccc(Br)cc12)N1CCC2(CC1)OCCO2` gave gsp ag 19%, PINK1 modulator -1.0%, D2 ag -1.5, Menin MLL FP FL 2.1, gsp antag 1%, ClpP mod 2.1% and Sfp inh 12%.
Screening COC(=O)C1=COC(C)C2CN3CCC4(C(=O)Nc5ccccc54)C3CC12 (configuration not stated) returned gsp ag -4%, PINK1 modulator 3.8%, D2 ag -8.1, Menin MLL FP FL 1.8, gsp antag -12%, ClpP mod 0.3% and Sfp inh 12%.
For COc1ccc(C(=O)CC(c2ccc(OC)c(OC)c2)c2c(O)c3ccccc3oc2=O)cc1OC (configuration not stated) the results were gsp ag 8%, PINK1 modulator 0.1%, D2 ag -7.9 and ClpP mod -3.9%.
Screening CCN(CC)C(=O)c1c(C)[nH]c(=S)c(C#N)c1-c1ccco1 returned gsp ag 15%[15.4 µM], PINK1 modulator -0.2%, D2 ag -4.4, Menin MLL FP FL inconclusive, gsp antag -14% and Sfp inh 1µM*.
Cc1c(NC(NC(=O)CF)C(Cl)(Cl)Cl)c(=O)n(-c2ccccc2)n1C (configuration not stated) was read as gsp ag -22%[15.4 µM], PINK1 modulator -1.0%, D2 ag 2.7, Menin MLL FP FL -4.3 and Sfp inh 14%.
`CC(C)Oc1ccc(Cc2c(O)[nH]c(=O)[nH]c2=O)cc1` gave gsp ag -24%, PINK1 modulator 2.5%[38.3 µM], D2 ag -0.8, Menin MLL FP FL -6.4, gsp antag -6%, ClpP mod -1.5% and Sfp inh -14%.
`O=C1NCN(c2ccccc2)C12CCN(C(c1cccc3ccccc13)c1nnnn1-c1ccc3c(c1)OCCO3)CC2` (configuration not stated) gave PINK1 modulator 6.3%, D2 ag -4.9 and ClpP mod -8.6%.
Screening CC12CC[C@H]3[C@@H](CCC4(O)C[C@H](O)CCC34/C=N/NC(=O)c3ccccc3F)C1(O)CCC2C1=CC(=O)OC1 (some centres not stated) returned gsp ag -28%, PINK1 modulator -1.8%, D2 ag 0.4, Menin MLL FP FL -1.8, gsp antag 11%, ClpP mod -0.8% and Sfp inh -4%.
For CC(=O)N1c2ccc(S(=O)(=O)N3CCCC(C(=O)Nc4cc(C)cc(C)c4)C3)cc2CC1C (configuration not stated) the results were gsp ag inconclusive, PINK1 modulator 9.9%, D2 ag -1.9, Menin MLL FP FL 0.2, gsp antag -12%, ClpP mod -4.2% and Sfp inh 11%.
For COc1ccc(-n2c(-c3ccco3)nc3ccccc3c2=O)cc1 the results were gsp ag 4%[15.4 µM], PINK1 modulator -0.2%, D2 ag 0.8, Menin MLL FP FL -4.9, gsp antag -16% and Sfp inh 17%.
`O=C1NC(=O)N(c2ccc(F)cc2)C(=O)/C1=C/c1ccc2c(c1)CCCN2Cc1ccccc1` gave gsp ag -25%, PINK1 modulator -0.7%, D2 ag -0.1, Menin MLL FP FL 24, gsp antag 3%, ClpP mod 2.1% and Sfp inh 45µM*.
`CC(=O)Nc1ccccc1C(=O)C(=O)Nc1cccc(C(=O)N2CCC3(CC2)OCCO3)c1` gave gsp ag -1%[15.4 µM], PINK1 modulator 4.6%, D2 ag 2.0, Menin MLL FP FL 0.7, gsp antag 1% and Sfp inh 23%.
CCOC(=O)c1ccc(N=Cc2c(O)n(-c3ccc(OC)cc3)c(=S)[nH]c2=O)cc1 was read as gsp ag -3%, PINK1 modulator -1.5%, D2 ag -7.1, Menin MLL FP FL inconclusive, gsp antag -8%, ClpP mod -1.6% and Sfp inh -28%.
Cc1c(O)c(O)cc2c1CC=C1[C@]3(C)CC[C@]4(C)CC[C@@](C)(C(=O)O)CC4[C@]3(C)CC[C@]12C (some centres not stated) was read as PINK1 modulator 3.4%, Menin MLL FP FL 0.0 and Sfp inh -9%.
Screening COc1ccc2c(c1OC)C[N+]1([O-])CCc3cc4c(cc3C1C2)OCO4 (configuration not stated) returned gsp ag inconclusive, PINK1 modulator -0.1%, D2 ag -2.6, Menin MLL FP FL 1.2, gsp antag 5%, ClpP mod -2.9% and Sfp inh 4%.
`CCOP(=O)(OCC)C(O)c1ccc2c(c1)OCO2` (configuration not stated) gave gsp ag 8%, PINK1 modulator 0.1%, D2 ag -3.2, Menin MLL FP FL 3.3, gsp antag 8%, ClpP mod -0.1% and Sfp inh 13%.
`O=C(O)c1ccc(Cl)nc1` gave gsp ag 27%, PINK1 modulator -0.7%, D2 ag -2.9, Menin MLL FP FL 3.9, gsp antag 14%, ClpP mod -3.7% and Sfp inh 7%.
`CN(C)c1ccc(/C=C/C=C2/C(=O)NC(=O)N(c3ccccc3)C2=O)cc1` gave gsp ag -18%[15.4 µM], PINK1 modulator 19%, D2 ag -2.0, Menin MLL FP FL inconclusive, gsp antag inconclusive and Sfp inh 45µM*.
`Cn1cc(C(=O)OCC(=O)NC2CCCCC2)c2ccccc21` gave gsp ag 6%, PINK1 modulator 4.1%, D2 ag -6.1, gsp antag -9% and ClpP mod -2.5%.
CCn1cc(C(=O)N2CCC3(CC2)OCCO3)c(=O)c2cc(S(=O)(=O)N3CCCC3)ccc21 was read as gsp ag 0%, PINK1 modulator 4.5%[38.3 µM], D2 ag -0.7, Menin MLL FP FL 1.6, gsp antag 6%, ClpP mod 0.8% and Sfp inh 2%.

Looked up by compound from the entries so far, two records:
`Cn1cc(C(=O)OCC(=O)NC2CCCCC2)c2ccccc21` gave gsp ag 6%, PINK1 modulator 4.1%, D2 ag -6.1, gsp antag -9% and ClpP mod -2.5%.
Cc1c(O)c(O)cc2c1CC=C1[C@]3(C)CC[C@]4(C)CC[C@@](C)(C(=O)O)CC4[C@]3(C)CC[C@]12C (some centres not stated) was read as PINK1 modulator 3.4%, Menin MLL FP FL 0.0 and Sfp inh -9%.
